High-throughput results: PubChem BioAssay, ICCB-Longwood Screening Facility, Harvard Medical School
Sa helicase inh = inhibitors of S. aureus replicative helicase, primary screen, biochemical, fluorescence unwinding readout | replicative DNA helicase (DnaC/DnaB), Staphylococcus aureus | purified S. aureus helicase, fluorescence unwinding assay; about half of the hits fall short of the stated cut | inhibition, %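 (tested at about 80 µM)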 | 120,000 tested, 0.05% active | AID 485395, 2010;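 active = both duplicates at 50% or more, or one of them with a favoured structure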;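 also: 0% = mean of negative control wells and 100% = mean of positive control wells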
MgrA-DNA mod = S. aureus MgrA activity modulators, primary screen, biochemical, S. aureus Newman, fluorescence polarization; AID 602314, 2012; inhibition, %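 (about 10 µg/mL by stock and volumes)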; MgrA-DNA binding; 84,000 tested, 0.13% active;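 active = above 50% in either of two replicates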;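 also: 0% = protein plus DNA without compound and 100% = DNA alone without protein; higher means less MgrA bound to DNA so lower polarization; one replicate is shown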
Numbers without * were called inactive; . = no result given; & = joins results of further samples.

SMILES	Sa helicase inh	MgrA-DNA mod
Cc1nnc(/N=C/NO)s1	.	9.3
Cc1ccc(CN(C)c2nc3ccccc3nc2NS(=O)(=O)c2ccc3c(c2)OCCO3)o1	-20	.
N#CCc1ccc(NC(=O)COc2ccc3c(c2)CCC3)cc1	9	.
COc1ccc(CCCc2nc3ccccc3[nH]2)cc1	5	-0.3
CC1(C)CC(=O)C2=C(C1)Nc1ccccc1N(C(=O)C(F)(F)F)C2c1ccc(Cl)cc1Cl (configuration not stated)	-3	0.0
CC(O)CCC1CCCO1 (configuration not stated)	9	-2.1
O=C(c1ccc2c(=O)n(Cc3ccc4c(c3)OCO4)c(=S)[nH]c2c1)N1CCNCC1	12	-0.1
O=c1nc2n(c3ncccc13)CCC2	15	.
CN(C)S(=O)(=O)Nc1ccc(N)cc1	-13	.
Cc1cc(C)c(NC(=O)CN2C(=O)CCC2=O)c(C)c1	3	.
O=S(=O)(NCc1ccc(Cl)cc1)c1cnc[nH]1	18	-1.0
CC(C(=O)Nc1cccc(N)c1)n1nnc2ccccc21 (configuration not stated)	-1	-2.9
O=C(CN1C(=O)c2ccccc2C1=O)Nc1ccc(S(=O)(=O)N2CCCCC2)cc1	1	.
Cc1ccc(-n2nc(C)c3c2N2COCN(C3)c3c(c(C)nn3-c3ccc(C)cc3)C2)cc1	-23	.
c1ccc(N=C(Nc2ccccc2)N2CCOCC2)cc1	0	-2.6
Cc1ccccc1C(=O)N1CCC(C(=O)OCc2ccccn2)CC1	-4	.
COc1ccc(/C=N/N2C(=O)c3ccc4c5c(ccc(c35)C2=O)CC4)cc1Br	5	0.9
Cc1cc(/C=c2\sc3nc4ccccc4n3c2=O)c(C)n1-c1cccnc1	-80	.
O=C(C1CC1)N1CCN=C1SCc1ccc(C(F)(F)F)cc1	9	.
NS(=O)(=O)c1ccc(CCNC(=O)CSc2nc3ccc(Cl)cc3o2)cc1	9	.
O=C(O)C1Sc2[nH]c(=O)sc2C2c3ccccc3OC(=O)C12 (configuration not stated)	2	.
O=S1(=O)CC(c2ccccc2)CS(=O)(=O)C1CCN1CCOCC1 (configuration not stated)	.	3.1
CC1=NN(C(=O)CSc2nnc(-c3ccncc3)o2)C(C)(O)C1 (configuration not stated)	15	-1.9
O=C(c1cnc2ccccc2n1)N1CCN(c2cccc(Cl)c2)CC1	.	-0.4
CSC(=NC(C)C)NC#N	18	.
N#Cc1ccccc1CSc1nc2ccccc2c(=O)n1CCCC(=O)NCc1ccco1	-15	.
Cc1csc2nc(CNS(=O)(=O)c3ccccc3)cn12	3	-0.8
O=C1Nc2nc(=O)nc3[nH]c(=O)nc(n23)N1	0	0.5
O=C(c1c[nH]c2ccccc2c1=O)N1CCCCC1	-1	-2.9
COC(=O)c1ccc(OCC(=O)Nc2ccccc2C(=O)NC2CC2)cc1	4	.
N#CCOC(=O)CCc1nc2ccccc2s1	5	.
COC(=O)CSc1ncnc2cc(OC)c(OC)cc12	.	2.2
CSc1c(CC(=O)NC(C)(C)CO)n(Cc2ccccc2)c2ccccc12	9	.
Cc1ccccc1NCc1ccccc1O	9	-3.2
COc1ccc(C(=O)C[n+]2ccccc2)cc1CSc1ccc(Cl)cc1	.	-3.0
CCN(Cc1ccccc1)C(=O)CSc1nc2ccncc2[nH]1	14	.
CC(Sc1nnc(CC(=O)Nc2ccccc2F)n1C)C(=O)Nc1ccc2c(c1)OCO2 (configuration not stated)	14	0.2
Cc1nc(SCc2ncc(-c3ccccc3)o2)c2ccccc2n1	-20	.
ClCC1CCCO1 (configuration not stated)	-15	-3.9
Cc1ccc(C)c(OCCCN2CCNCC2)c1	-13	-0.9
CN(C)CCNC(=O)c1cc(-c2ccc(F)cc2)nc2ccccc12	-16	-2.4
O=C(CSc1nnc(-c2ccc3c(c2)OCO3)o1)N1N=C(c2cccs2)CC1c1ccco1 (configuration not stated)	19	.
Clc1ccc(CN2CCN(/N=C/C=C/c3ccco3)CC2)cc1	-2	.
NC(=O)CCSCCC(N)=O	.	3.2
O=C(Nc1ccncc1)c1cn(-c2ccccc2)nc1-c1cccs1	10	-1.6
CSc1ncnc2c1ncn2CN1CCOCC1	-6	-3.6
Cc1noc(C)c1NC(=O)Nc1ccc(N(C)C)cc1	26	.
COc1cc(C(=O)NNC(=O)c2ccc(Cl)c(Cl)c2)cc(OC)c1OC	.	-0.4
CC(=O)N1c2ccccc2C(=O)OC1c1cccnc1 (configuration not stated)	11	.
CCOC(=O)c1cnc2ccccc2c1Nc1ccc(OC)cc1	18	.
Cc1cc(C)c2c(n1)SCC(=O)N2CCCC(=O)NCc1ccccc1	4	.
COc1ccccc1NC(=O)NC1CCN(c2ncc(C(F)(F)F)cc2Cl)CC1	.	3.3
COc1ccc(-c2csc(N)n2)cc1F	11	.
CSc1nnc(COc2cccc3ccc(C)nc23)n1C	-15	.
COc1cc(CNc2ccc(C)cc2)ccc1O	-4	.
COc1ccc(C2CC(c3ccccc3)=NN2C(=O)c2cc(OC)c(OC)c(OC)c2)cc1 (configuration not stated)	.	-0.3
Cc1c(NC(=O)NCCCN2CCOCC2)sc2nc3n(c(=O)c12)CCC(C)CC3 (configuration not stated)	9	.
O=C(Cn1nc(-c2ccco2)ccc1=O)NCc1ccco1	9	.
O=C(Nc1ccccc1)c1cc(Cl)ccc1O	6	0.7
COc1ccc2[nH]c(=O)c(CN(C3CCCC3)S(=O)(=O)c3cccc4nsnc34)cc2c1	-2	3.3

An excerpt from above in order of the Sa helicase inh value, low to high.
SMILES	Sa helicase inh	MgrA-DNA mod
O=C(Nc1ccccc1)c1cc(Cl)ccc1O	6	0.7
Cc1c(NC(=O)NCCCN2CCOCC2)sc2nc3n(c(=O)c12)CCC(C)CC3 (configuration not stated)	9	.
CCOC(=O)c1cnc2ccccc2c1Nc1ccc(OC)cc1	18	.

By substructure: the entries above with an aryl methoxy group
SMILES	Sa helicase inh	MgrA-DNA mod
COc1ccc(CCCc2nc3ccccc3[nH]2)cc1	5	-0.3
COc1ccc(/C=N/N2C(=O)c3ccc4c5c(ccc(c35)C2=O)CC4)cc1Br	5	0.9
COC(=O)CSc1ncnc2cc(OC)c(OC)cc12	.	2.2
COc1ccc(C(=O)C[n+]2ccccc2)cc1CSc1ccc(Cl)cc1	.	-3.0
COc1cc(C(=O)NNC(=O)c2ccc(Cl)c(Cl)c2)cc(OC)c1OC	.	-0.4
CCOC(=O)c1cnc2ccccc2c1Nc1ccc(OC)cc1	18	.
COc1ccccc1NC(=O)NC1CCN(c2ncc(C(F)(F)F)cc2Cl)CC1	.	3.3
COc1ccc(-c2csc(N)n2)cc1F	11	.
COc1cc(CNc2ccc(C)cc2)ccc1O	-4	.
COc1ccc(C2CC(c3ccccc3)=NN2C(=O)c2cc(OC)c(OC)c(OC)c2)cc1 (configuration not stated)	.	-0.3
COc1ccc2[nH]c(=O)c(CN(C3CCCC3)S(=O)(=O)c3cccc4nsnc34)cc2c1	-2	3.3

(cont.)
SMILES	Sa helicase inh	MgrA-DNA mod
O=C(NCc1ccco1)c1ccc(S(=O)(=O)NCC2CCCCC2)cc1	-8	-2.8
COc1cc(N2C(=O)CSC2=S)cc(OC)c1OC	.	1.1
O=c1[nH]c2c(=O)oc3ccccc3c2n(C2CCCCC2)c1=O	14	.
CC(C)N1CC(=O)N(c2ccc(F)c(Cl)c2)C1=S	-4	.
O=C1OC(c2ccccc2)=N/C1=C/c1ccc(F)cc1	.	0.3
COc1cc2c3cc1Oc1c(OC)c(OC)cc4c1[C@@H](Cc1ccc(OC(=O)c5ccc([N+](=O)[O-])cc5)c(c1)Oc1ccc(cc1)C[C@@H]3N(C)CC2)N(C)CC4	.	2.5
CCCN(Cc1nnc(-c2ccccc2Cl)o1)C(=S)NC1CCCCC1	5	.
O=C(O)CCNc1ccccc1	-11	1.1
N#Cc1ccc(NC(=O)c2cc(=O)c3ccccc3o2)cc1	-4	.
NS(=O)(=O)c1ccc(CCNC(=O)C2CCCC2)cc1	-5	.
CC(C)CNS(=O)(=O)c1ccc(S(=O)(=O)N2CCCC(C(=O)NC3CCCCC3)C2)cc1 (configuration not stated)	3	-0.2
CC(=O)N1CCN(C(=S)c2ccc(C(C)(C)C)cc2)CC1	7	.
O=C(OCc1ccc(Cl)cc1)c1ccc2c(c1)C(=O)N(CCCN1CCOCC1)C2=O	-1	.
COc1ccc(NC(=O)Cn2nnc(C(=O)Nc3ccc(OC)c(OC)c3)c2N)cc1	16	.
Cc1ccc(N2C(=O)/C(=C\c3ccc4c(c3)OCO4)N=C2SC2CCOC2=O)cc1 (configuration not stated)	-11	.
CSc1ncnc2c1nnn2Cc1ccccc1Cl	12	.
CNCc1ccccc1C(F)(F)F	-19	2.8
O=S(=O)(c1cnc[nH]1)N1CCN(Cc2ccccc2)CC1	-35	.
Cc1ccccc1OCC(=O)Nc1cccnc1	-13	-0.9
Cc1cc(C(=O)Nc2ccccc2N2CCCCC2)no1	.	2.5
CCOc1ccc2nc(Cl)c(CN(Cc3ccco3)C(=O)C3CC3)cc2c1	-6	2.8
COc1cc(/C=N/S(=O)(=O)c2ccc(Br)cc2)cc(OC)c1O	-18	.
O=c1oc(-c2ccccc2F)nc2scc(-c3cccs3)c12	.	0.3
COc1ccc2[nH]cc(NC(=O)N3CCN(C(=O)OC(C)(C)C)CC3)c(=O)c2c1	18	-2.0
C=CCn1c(SCC(=O)OC(C)(C)C)nc2scc(-c3ccco3)c2c1=O	-17	.
Cc1cc(=O)n2nc(N(C)CC(=O)NC3CCCc4ccccc43)sc2n1 (configuration not stated)	-11	.
CCOC(=O)C(Cc1c[nH]c2ccccc12)NC(=O)c1ccc([N+](=O)[O-])cc1Cl (configuration not stated)	.	-1.9
CSc1nc2ccc(NC(=O)CN3C(=O)CCC3=O)cc2s1	-18	.
Cc1cccc(Nc2cc(=O)[nH]c(=O)[nH]2)c1	-7	1.8
COC(CN(C)c1cc(C)nc2c(-c3ccc(Cl)cc3)c(C)nn12)OC	-2	1.3
CC(=O)Nc1ccc2c(c1)nc1n2CCN(c2ccccc2)C1	-11	.
CSc1nn2c(=O)c(Cc3ccccc3)nnc2s1	29	.
Cc1cccc(NC(=O)C2CC(=O)N(c3ccccc3)C2)n1 (configuration not stated)	-5	-3.5
O=C(Cn1nnc2ccccc2c1=O)NC(=O)Nc1ccccc1F	-14	.
Cc1cc(C)n(CCc2nc(-c3ccco3)cs2)n1	5	3.1
O=S1(=O)CCC(Nc2ncnc3cc(-c4ccc(F)cc4)sc23)C1 (configuration not stated)	12	.
COc1ccc(N(C(C)C(=O)O)S(C)(=O)=O)cc1 (configuration not stated)	9	.
CCc1ccc(-c2nc(CSCC(=O)N3CCN(CC)CC3)c(C)o2)cc1	16	.
CCN(Cc1ccccc1)C(c1cccnc1)c1nnnn1Cc1ccccc1 (configuration not stated)	3	0.8
CN1C(=O)/C(=C/c2ccc(-c3ccc(C(=O)O)cc3)o2)c2ccccc21	2	6.1
CC1CCC(C(=O)NC(C(=O)Nc2ccc3c(c2)OCO3)C(C)C)CC1 (configuration not stated)	17	.
Cc1cc(NC(=O)CSc2nnc(-c3cccs3)n2C)no1	6	0.8
CCS(=O)(=O)c1ccc2oc(SCC(=O)CSc3nc4cc(S(=O)(=O)CC)ccc4o3)nc2c1	7	.
O=C(NCC12CC3CC(C1)CC(CNC(=O)N1CCCC1)(C3)C2)N1CCCC1	8	0.5
O=C1/C(=C\c2ccccn2)CN(Cc2ccccc2)C/C1=C\c1ccccn1	16	1.0
O=C(/C=C/c1cccs1)Nc1nc2c(s1)CCCC2	-10	.
CS(=O)(=O)N1CCCC(C(=O)N2CCN(c3ccc(F)cc3)CC2)C1 (configuration not stated)	6	0.0
COC(=O)C1=C(C)N(Cc2ccc(C)cc2)C(=O)/C1=C\c1ccccc1O	13	1.6
NC(=O)CSc1nnc(C2CC2)n1C1CC1	1	.
CC(=O)N=C(NC(C)=O)c1ccc(N2CCOCC2)cc1	-2	0.8
Cn1ccnc1-c1nc2ccccc2n(CC(=O)O)c1=O	27	.
CNc1oc(-c2ccccc2)nc1C#N	15	.
Cc1ccc2nc(NC(=O)c3ccccc3C)sc2c1	-8	.
O=C(CN1C(=O)CSc2ncccc21)NCCc1ccccc1	8	-1.9
CN(C)CCOC(=O)COc1ccc(Cl)cc1	.	0.8&3.2
COc1ccc(/C=C2\CC/C(=C\c3ccc(Cl)cc3)C2=O)cc1	4	3.6
Cc1nc2sc(C(c3ccccc3)N3CCCCC3)c(O)n2n1 (configuration not stated)	4	.
CCOC(=O)Cc1c(C)nc(Cc2ccc(OC(C)C)cc2)[nH]c1=O	0	0.4
CCN1CCC(=NN2CCOCC2)CC1	-6	.
COc1ccc(C2CC(c3ccccc3)=NN2C(=O)COC(=O)c2ccco2)cc1 (configuration not stated)	26	.

Complete entries from above. Order of values: Sa helicase inh, MgrA-DNA mod
NC(=O)CSc1nnc(C2CC2)n1C1CC1 is listed as 1, .
COc1ccc(C2CC(c3ccccc3)=NN2C(=O)COC(=O)c2ccco2)cc1 (configuration not stated) is listed as 26, .
CCOC(=O)Cc1c(C)nc(Cc2ccc(OC(C)C)cc2)[nH]c1=O is listed as 0, 0.4
Cc1ccc2nc(NC(=O)c3ccccc3C)sc2c1 is listed as -8, .
CCN1CCC(=NN2CCOCC2)CC1 is listed as -6, .

Additional compounds.
SMILES	Sa helicase inh	MgrA-DNA mod
COc1ccc(NS(=O)(=O)C(F)(F)F)cc1	-12	-1.8
Cc1ccc(Nc2nc(N)nc(COc3ccccc3C#N)n2)cc1	-13	.
O=C(CCn1nc(C(F)(F)F)cc1C1CC1)NCCC1=CCCCC1	7	-4.5
O=C(CCCN1C(=O)C(c2ccccc2)Oc2cccnc21)N1CCc2ccccc21 (configuration not stated)	-27	.
CN(C)CCC(=O)/C=C/c1ccco1	.	-6.0
Cc1cc(C)c(S(=O)(=O)Nc2ccc3[nH]c(=O)[nH]c3c2)c(C)c1	23	-2.0

Not all compounds are listed; count on the stated rates, not on these rows.
